Sfp PPTase inh: qHTS Assay for Inhibitors of Bacillus subtilis Sfp phosphopantetheinyl transferase (PPTase); 310,000 compounds, 3.5% hits; 4'-phosphopantetheinyl transferase ffp (Bacillus subtilis), Q9F4F7; Biochemical Sfp PPTase activity, qHTS; AID 1490, 2009; Potency, µM, without a hit: max response, negative = inhibition, most hits filed as inhibitors; active = well fitted inhibition curve with a large enough effect; inconclusive = small, poorly fitted or top-dose-only effect, or another doubt; inactive = no such curve, though single readings can be large or run the other way;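 also: the enzyme is Sfp with the accession as filed and its product quenches rhodamine fluorescence; potency is read from the fitted curve at half-maximal effect; 0% = enzyme reaction without inhibitor and -100% = no enzyme wells; top concentration of the series not given in the record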
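Step 1, compound plus 15 nM Sfp-PPTase, 15 min, room temperature. Step 2, add rhodamine-CoA (5 uM) and BHQ-2-YbbR (12.5 uM). Step 3, read 525/598 nm fluorescence at 0 and 30 min.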
ClpP mod: qHTS Assay for Activators of ClpP | purified B. subtilis ClpP, FRET peptide cleavage, 20 min | Potency, µM (highest dose often 57.5 µM), for the others: at the highest dose activity change, negative = active | ATP-dependent Clp protease proteolytic subunit (Bacillus subtilis (strain 168)), P80244 | 340,000 compounds, 1.9% hits; active = well fitted falling curve with a large enough effect; inconclusive = small, poorly fitted or top-dose-only effect; inactive = no such curve, though single readings can be large or run the other way; also: potency is read from the fitted curve at half-maximal effect; the source files actives as falling curves though it sought activators and does not explain the sign; nearly all actives have a fitted effect of over 65% in size; many hits overshoot -100%
Target sequence (P80244 whole entry, looked up): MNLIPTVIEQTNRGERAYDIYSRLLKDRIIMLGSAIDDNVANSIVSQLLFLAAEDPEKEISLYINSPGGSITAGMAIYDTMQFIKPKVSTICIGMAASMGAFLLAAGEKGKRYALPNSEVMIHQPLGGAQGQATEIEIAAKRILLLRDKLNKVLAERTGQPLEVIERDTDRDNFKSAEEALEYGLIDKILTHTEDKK
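ClpP 10 microg/mL final, pH 8 Tris/KCl buffer with BSA, glycerol, Tween-20; compound pinned in; FRET-FV substrate; RT 20 min; Ex320/Em430; ΔFRET vs ADEP 5.8 microM, DMSO, no enzyme.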
TRPML1 inh: qHTS for Inhibitors of the Human Mucolipin Transient Receptor Potential 1 (TRPML1); activity change, negative = inhibition, % (concentration not given with the values); TRPML1-inducible cells, Ca2+ dye fluorescence, FDSS; hits give low values; inhibition of EC80 agonist-evoked calcium signal; 390,000 compounds, 0.02% hits; AID 624415, 2012; in the data active means activity change below about -50%; inconclusive means about -30% to -50%; inactive means above about -30%;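 also: stimulus is agonist 54-4 at its EC80 concentration; % is scaled to controls: 0 for no effect and ±100 for the full control effect; the text of the record puts the active cut at -80%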
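TRPML1-DL cells, Tet-induced overnight (~16 h, 37 °C) at 1,500 cells/well, were loaded with Ca8 no-wash dye plus quencher for 45-90 min at room temperature. Compounds were pinned during FDSS kinetic reading; agonist 54-4 at EC80 (4 uM final) then added.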
TRPV1 potentiator: HTS Assay for Compounds that Act as Potentiators of the Vanilloid Receptor 1 | Transient receptor potential cation channel subfamily V member 1 (Homo sapiens), Q8NER1 | TRPV1-expressing cells, Fluo-8 calcium influx, capsaicin EC20 potentiation; host cell line not named in the record; control for the full effect not named in the record | potentiation, % at 8.33 µM | 320,000 compounds, 0.02% hits; active means potentiation above 80%; inconclusive means 30% to 80%; inactive means below 30%; also: 0% is about no effect
Target sequence (Q8NER1 whole entry, looked up): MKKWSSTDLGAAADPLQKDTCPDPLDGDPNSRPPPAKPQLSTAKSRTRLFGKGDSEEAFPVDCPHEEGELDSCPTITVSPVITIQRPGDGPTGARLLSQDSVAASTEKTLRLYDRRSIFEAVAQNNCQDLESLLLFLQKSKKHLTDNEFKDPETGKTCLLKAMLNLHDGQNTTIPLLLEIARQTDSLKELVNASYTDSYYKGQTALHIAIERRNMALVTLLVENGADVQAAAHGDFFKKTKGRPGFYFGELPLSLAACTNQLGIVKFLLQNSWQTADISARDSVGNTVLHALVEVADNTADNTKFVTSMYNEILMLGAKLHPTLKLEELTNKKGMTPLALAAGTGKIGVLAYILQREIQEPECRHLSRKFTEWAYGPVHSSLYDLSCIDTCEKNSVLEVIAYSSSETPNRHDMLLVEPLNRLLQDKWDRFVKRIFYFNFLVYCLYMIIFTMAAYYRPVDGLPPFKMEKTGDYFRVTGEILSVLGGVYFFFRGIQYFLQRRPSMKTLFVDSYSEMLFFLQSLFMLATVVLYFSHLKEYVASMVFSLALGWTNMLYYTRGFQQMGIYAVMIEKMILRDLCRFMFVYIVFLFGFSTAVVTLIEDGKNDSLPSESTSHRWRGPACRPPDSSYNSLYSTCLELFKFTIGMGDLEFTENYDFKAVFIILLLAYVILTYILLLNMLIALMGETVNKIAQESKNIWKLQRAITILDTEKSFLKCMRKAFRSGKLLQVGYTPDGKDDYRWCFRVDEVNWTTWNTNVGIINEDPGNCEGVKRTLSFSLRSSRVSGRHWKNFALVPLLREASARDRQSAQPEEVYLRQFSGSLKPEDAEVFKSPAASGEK
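TRPV1-expressing cells were cultured overnight at 35.5C and loaded with Fluo-8 calcium dye for 40 to 90 min at room temperature. After a 10 s baseline, compound was added and calcium influx was read kinetically for 3 min (ex 480/em 520 nm).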
Menin-MLL FL inh: qHTS Assay for Inhibitors Targeting the Menin-MLL Interaction in MLL Related Leukemias: Competition With Fluorescein Labeled MLL-derived Peptide | FP activity change, % at 61.4 µM | Fluorescence polarization, fluorescein-MLL peptide displacement from menin | 290,000 tested, under 10 active; inconclusive = falling polarisation curve, or a change in total fluorescence; inactive = total fluorescence flat and polarisation flat or rising; no compound was filed as active; the % refers to the polarisation; negative = inhibition;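 also: % of control where 0% means no effect; inhibitors lower the polarisation; unlabelled MLL peptide was the positive control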
TRPML1 agonist: qHTS for Agonists of the Human Mucolipin Transient Receptor Potential 1 (TRPML1); Mucolipin-1 (Homo sapiens), Q9GZU1; 410,000 compounds, 0.12% hits; TRPML1-expressing cells, Ca2+ dye fluorescence, FDSS; host cell line not named in the record; reference of the full effect not given here; activation, % (test concentration not listed); in the data active = activation above about 50%; inconclusive = about 30% to 50%; inactive = below about 30%; also: 0% is about no effect; the text of the record puts the active cut at 80%
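Tetracycline-induced TRPML1-DL cells are seeded and incubated overnight before loading with a no-wash Ca2+ dye and quencher. Agonist activity is taken from the 110 s fluorescence read following compound pin-transfer on an FDSS, before EC80 54-4 challenge.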
PINK1 modulator: A Quantitative High throughput Screen to Identify Chemical Modulators of PINK1 Expression | PINK1 immunofluorescence, high-content cytometry, 24 h | Potency, µM (titrated, usually from 76.6 µM), for the others: at the top dose activation (PINK1 increase), most hits filed as activators | 410,000 compounds, 0.2% hits | AID 624263, 2012; active = well fitted activation curve with a large enough effect; inconclusive = small, poorly fitted or top-dose-only effect; inactive = flat fitted curve, though single readings scatter; cell line not stated here;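 also: potency is read from the fitted curve at half-maximal effect; % of control where 0% means no effect; nearly all actives have a fitted effect of over 65% in size; a mitochondrial uncoupler was the plate control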
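Fluorescence from anti-PINK1 antibody, together with nuclear and cell stains, was scanned on a laser-scanning cytometer. Before staining, stable-line cells were incubated 24 hours with compounds at 5 concentrations; primary antibody 12 h at 10 degrees C.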
The depositor's hits bear a star; i = inactive; ? = inconclusive; . = no result given; & = joins results of further samples; [ ] = remark or other dose.

SMILES | Sfp PPTase inh | ClpP mod | TRPML1 inh | TRPV1 potentiator | Menin-MLL FL inh | TRPML1 agonist | PINK1 modulator
COc1cccc(/C=N/NC(=O)c2cccc(N3CCCC3=O)c2)c1 | 15% | . | 24 | -8 | -5.8 | -0.1 | 0.1%
O=C(CC[C@H]1O[C@@H](n2ccc(=O)[nH]c2=O)[C@H](O)[C@@H]1O)N[C@H](Cc1ccccc1)C(=O)NCc1cccs1 | . | -1.9% | -22 | . | . | 0.4 | 3.8%
COc1ccccc1NC(=O)Nc1ccccc1SC | 16% | . | 4 | 3 | 0.3 | 0.5 | -1.3%
Cn1cnc(S(=O)(=O)N2CCC(C(=O)N3CCN(c4ccc(Cl)cc4)CC3)CC2)c1 | . | -2.0% | 19 | . | . | 1.6 | -1.4%
CC(C)c1ccc(S(=O)(=O)/N=C2/C=CC(=O)c3ccccc32)cc1 | ? | . | . | 10 | -0.5 | . | .
O=C1C=C(c2cccc(Cl)c2)C[C@@H](c2ccc3c(c2)OCO3)C1 | . | 1.8% | 21 | -10 | . | 2.7 | -0.9%
COc1ccc(CCNC(=O)c2nonc2N)cc1 | 8% | 3.4% | -13 | 0 | -0.9 | -0.4 | -0.1%
Cc1ccc(NC(=O)CSc2ccc(-c3ccco3)nn2)cc1 | 20µM* | . | -12 | 10 | 4.6 | 0.8 | 2.8%
O=C(Cc1ccccc1)N[C@@H](Cc1ccc(O)cc1)C(=O)O | 13% | . | . | 26 | -1.9 | . | .
CSc1ccc(CNC(=O)C2CCC(=O)N(Cc3cccc(F)c3)C2)cc1 (centres undefined) | 5% | 69% | -8 | -6 | . | 0.6 | 1.0%
COc1cc(C(=O)N2CCC(N3CCCCCC3)CC2)cc(OC)c1OC | . | 0.9% | -4 | . | . | 3.1 | 1.3%
CCN(CC)CCNC(=O)c1ccc2nc(CCc3ccccc3)oc2c1 | . | 2.1% | 11 | . | . | -0.6 | -0.3%
COCCCn1c(SCC(=O)Nc2sc3c(c2C#N)CCCC3)nnc1-c1ccncc1 | -12% | -2.5% | 2 | -5 | 5.3 | 1.2 | -0.1%
COc1ccc(-c2cc(NC(C)=O)c3ncc(-c4cc(OC)c(OC)c(OC)c4)n3c2)cn1 | . | -25% | . | . | . | -0.9 | 10%
CCOc1ccccc1NC(=O)c1cccc(NC(=O)c2ccco2)c1 | -9% | 1.7% | 13 | 28 | 2.7 | 1.9 | 14%
CCOc1cc(C=O)cc(Br)c1OCC(=O)NCCc1ccccc1 | -5% | -0.6% | 39 | -25 | 4.6 | 1.9 | 1.4%
CN1CCC(N(C)S(=O)(=O)c2ccc(NC(=O)COc3ccc(Cl)cc3)cc2)CC1 | . | -1.4% | 6 | -5 | . | 1.8 | 0.4%
Cc1ccc(-c2cn3c(n2)sc2cc(C(=O)NC4CCCCCC4)ccc23)c(C)c1 | . | ? | -1 | . | . | -0.4 | -1.7%
Cc1ccc2c(c1)c1c(n2C)-c2[nH]ncc2CC1 | 12% | 13µM* | 29 | -4 | -0.2 | 5.6 | -2.2%
CCc1cccc2c(SC(C)C(=O)NCC3CCCO3)nc(-c3ccccc3)nc12 (centres undefined) | -2% | 0.8% | 0 | -26 | -1.1 | 0.3 | .
Clc1cccc(-n2ncc3c(NCCCc4ccccc4)ncnc32)c1 | . | -15% | 27 | . | . | 3.4 | 7.2%
Cc1cc(C)c(C)c(OCCCCN(C)Cc2ccccc2)c1 | -30% | 1.7% | -3 | 2 | -3.8 | -1.4 | 19%
COc1ccc(NC(=O)c2ccc3c(c2)C(=O)N(CC2CCCO2)C3=O)cc1O (centres undefined) | -7% | 1.6% | -8 | -18 | -2.0 | -0.3 | 1.4%
COCCCN(C(=O)Cn1ncc2c(=O)oc3ccc(C)cc3c21)C(C)c1ccncc1 (centres undefined) | 20% | 2.1% | 8 | 6 | 3.4 | -0.1 | 0.2%
Cc1n[nH]c(C)c1CCNC(=O)C1CCC(=O)N(CCc2cccc(F)c2)C1 (centres undefined) | 4% | -1.9% | 0 | 20 | . | 0.4 | 2.5%
COC(=O)C(NC(=O)CCc1nnc2ccc(N3CCCCC3)nn12)C(C)C (centres undefined) | 10% | -1.4% | 8 | -8 | 6.4 | 0.8 | -0.3%
O=C(c1ccc2c(c1)N(Cc1ccccc1F)C(=O)c1ccccc1S2(=O)=O)N1CCN(c2ccccn2)CC1 | . | -2.8% | -8 | . | . | -0.7 | 6.5%
c1ccc(-c2ccccc2OCCOCCN2CCOCC2)cc1 | ? | -0.4% | -3 | -5 | -2.8 | 0.0 | -0.2%
CC(C)c1ccc(S(=O)(=O)N2CCN(C(=O)C3CC3C)CC2)cc1 (centres undefined) | . | 0.5% | 14 | ? | . | -0.7 | -0.6%
CCNC(=S)NNC(=O)c1csc(C(C)C)c1 | ? | -1.0% | 2 | -15 | -0.6 | -0.7 | -4.7%
OCCNCc1cccc(Br)c1 | -11% | . | 4 | -8 | 1.8 | -0.2 | 1.3%
CC(OC(=O)CNC(=O)C1CCCCC1)C(=O)NCc1ccccc1 (centres undefined) | . | . | 13 | . | . | 0.5 | -0.4%
COc1ccc(CN(C2CCCC2)S(=O)(=O)c2ccc(-n3cnnn3)c(OC)c2)cc1OC | 12% | -2.3% | -6 | -7 | 4.3 | 0.8 | -6.5%[38.3 µM]
CC1(C)CC(=O)/C(=C\c2cccc([N+](=O)[O-])c2)C(C)(C)N1 | 8% | . | 7 | -9 | -0.1 | -0.4 | 6.6%
C/C(CC(=O)Nc1ccccc1C#N)=N\NC(=O)c1ccncc1 | ? | . | -8 | -17 | -5.3 | 0.1 | 5.4%
O=C(CCC(=O)N1CCOc2ccccc21)N1CCOCC1 | 5% | -2.0% | -11 | -22 | 3.6 | -0.2 | 0.4%
CCOC(=O)C1CCN(C(=O)c2ccc(NC(=O)C3CCCO3)cc2)CC1 (centres undefined) | -6% | -1.0% | -6 | -1 | -1.5 | 0.3 | 1.2%
CN1CCN(C(CNC(=O)C(=O)Nc2ccc(F)cc2)c2cccnc2)CC1 (centres undefined) | . | 1.2% | -17 | . | . | 0.7 | 0.8%
O=C1Cc2cc(S(=O)(=O)N3CCN(c4ccccc4)CC3)ccc2N1 | 19% | -1.8%&-0.6% | 16&-11 | -5 | 15 | -0.3&-0.2 | 21%&6.3%
Cc1cc(NC(=O)C(C)SCC(=O)OC(C)C(=O)Nc2ccc(F)cc2Cl)no1 (centres undefined) | . | 1.1% | -1 | -11 | . | 0.8 | 0.3%

Part of the list above in a different format.
structure,Sfp PPTase inh,ClpP mod,TRPML1 inh,TRPV1 potentiator,Menin-MLL FL inh,TRPML1 agonist,PINK1 modulator
CSc1ccc(CNC(=O)C2CCC(=O)N(Cc3cccc(F)c3)C2)cc1 (centres undefined),5%,69%,-8,-6,.,0.6,1.0%
COc1cc(C(=O)N2CCC(N3CCCCCC3)CC2)cc(OC)c1OC,.,0.9%,-4,.,.,3.1,1.3%

Next section:
SMILES | Sfp PPTase inh | ClpP mod | TRPML1 inh | TRPV1 potentiator | Menin-MLL FL inh | TRPML1 agonist | PINK1 modulator
O=C1CC(c2ccc(S(=O)(=O)N3CCCCC3)cc2)CN1 (centres undefined) | 7% | 0.8% | 1 | 2 | -0.3 | 0.2 | 4.9%[38.3 µM]
CC1(C)CC(=O)C(C=NCCO)=C(O)C1 | 27% | 1.1% | 13 | -1 | -0.4 | -0.4 | 0.0%
CC(=O)Nc1ccc(C=NNc2ccc([N+](=O)[O-])cc2S(=O)(=O)Nc2ccccc2C(=O)O)cc1 | . | -1.2% | -7 | . | . | 1.9 | 1.4%
CCOC(=O)NCc1ccc2[nH]c(C)cc2c1 | -2% | -12% | -8 | 8 | -6.4 | 1.6 | 2.1%
CCCCNC(=O)C1(C)CCC(=O)N1C1CCN(Cc2ccccc2)CC1 (centres undefined) | . | -1.5% | . | . | . | -0.1 | -0.2%
CN1C(=O)c2ccccc2N(C)C1c1ccc(F)cc1 (centres undefined) | 3% | -0.3% | 4 | 13 | -2.7 | 0.5 | 2.9%
COc1ccc(OCC(=O)N2CCN(C(=O)c3cc(OC)c(OC)c(OC)c3)CC2)cc1 | . | 1.1% | 4 | . | . | 0.3 | 2.2%
C=C(C)c1cccc(C(C)(C)NC(=O)Nc2nncs2)c1 | 1% | . | 0 | 7 | -1.0 | 2.3 | 2.4%
CC(C)c1ccc2occ(CC(=O)Nc3cccc(C(F)(F)F)c3)c2c1 | . | 0.7% | 57 | . | . | 3.1 | ?
CCCC[C@]12Cc3cc(OC)c(OC)cc3C(O1)c1c(cc(-c3ccccc3)oc1=O)O2 | -11% | . | . | i | 15[11.7 µM] | . | .
CC(C)(Oc1ccc(Cl)cc1)C(=O)NCc1ccncc1 | 2% | -0.2% | -15 | -10 | -0.5 | -1.3 | -1.3%
CS(=O)(=O)c1cccc(C(=O)NCc2ccc(F)cc2)c1 | 1% | 0.5% | -18 | -10 | 0.4 | -0.2 | 0.5%
CCN1CCN(c2oc(/C=C/c3cc(OC)c(OC)c(OC)c3)nc2C#N)CC1 | . | 4.4% | -9 | . | . | 0.1 | 0.8%
COC(=O)Nc1ccc(S(=O)(=O)NNC(=O)c2c(O)c3ccccc3n(C)c2=O)cc1 | 2% | -3.1% | 39 | 11 | 2.5 | 0.4 | 11%
COc1cc(-c2nc3ncccn3c2Nc2ccc(C)cc2C)ccc1O | . | -4.4% | 14 | . | . | -0.2 | 2.0%
CSCC[C@H](NC(=O)c1ccc2c(c1)OCO2)c1nnc2ccccn12 | -4% | -8.5% | -12 | 5 | 3.1 | -0.5 | 0.4%
COc1ccc(Cc2nc3c4cnn(-c5ccccc5F)c4ncn3n2)cc1 | . | -1.3% | 0 | . | . | 0.9 | 2.3%

Source: PubChem (National Center for Advancing Translational Sciences (NCATS))
